# Source: PubChem BioAssay
# LASV entry inh – blocks Lassa virus binding to or entry into cells | Lassa virus pseudotype entry inhibition, cell reporter; control for the full effect not named in the record | Potency, µM (doses to about 37.9 µM), inactives show at the top dose activity change, negative = inhibition, hits mostly inhibitors | actives 1.2% (n = 300,000); active means well fitted inhibition curve with a large enough effect; inconclusive means small, poorly fitted or top-dose-only effect, or effect the other way; inactive means flat fitted curve, though single readings scatter; tested in HEK293 cells; note: % is set by controls: 0 for no effect and ±100 for the full control effect; nearly all actives have a fitted effect of over 50% in size; luciferase read-out
# Cruzain Triton – inhibitors of Trypanosoma cruzi cruzain with detergent | actives 0.43% (n = 200,000) | purified cruzain, Z-FR-AMC fluorescence, 0.01% Triton | Potency, µM, inactives show max response, negative = inhibition, usual class: inhibitors;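 note: plate controls were neutral wells for no effect and buffer without enzyme for full effect; nearly all actives have a fitted effect of over 40% in size; top concentration of the series not given in the record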
# Target sequence (P25779 123-467 limits assumed): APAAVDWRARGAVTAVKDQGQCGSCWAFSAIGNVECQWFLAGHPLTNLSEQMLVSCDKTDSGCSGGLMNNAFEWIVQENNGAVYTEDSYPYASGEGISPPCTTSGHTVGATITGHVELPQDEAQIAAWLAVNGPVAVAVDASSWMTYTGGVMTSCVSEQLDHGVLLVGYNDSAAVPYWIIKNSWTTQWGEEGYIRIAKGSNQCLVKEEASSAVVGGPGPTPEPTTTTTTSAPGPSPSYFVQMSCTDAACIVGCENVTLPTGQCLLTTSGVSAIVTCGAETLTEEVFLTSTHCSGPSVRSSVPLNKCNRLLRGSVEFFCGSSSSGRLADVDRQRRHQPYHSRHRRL
#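 Purified cruzain (1.5 nM final) was preincubated with compounds for 15 min at room temperature in 100 mM sodium acetate pH 5.5, 5 mM DTT, 0.01% Triton X-100. Reaction started with 2 uM Z-FR-AMC; AMC fluorescence change over 60 s gave activity.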
# NS1 function inh – inhibitors of influenza NS1 protein function | S. cerevisiae slowed by influenza A NS1, growth recovery by OD600 | Potency, µM (doses to about 46.1 µM), without a hit: top-dose activity, positive = more growth | actives 0.4% (n = 270,000); active means well fitted rising curve with a large enough effect; inconclusive means small, poorly fitted or top-dose-only effect; inactive means no such curve, though single readings can be large or run the other way; note: nearly all actives have a fitted effect of over 50% in size
#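 Recovery from NS1-induced slow growth read by OD600 in budding yeast switched to galactose assay medium (pH 6.0, -URA) at 1:100 dilution. Compound 23 nl per well; the matching strain lacking NS1 serves as control.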
# SARS PLpro yeast – blocks SARS-CoV papain-like protease in a yeast assay; Potency, µM (titrated, usually from 32.9 µM), without a hit: at the top dose activity, positive = growth rescue; S. cerevisiae expressing SARS-CoV PLpro, growth rescue; control for the full effect not named in the record; AID 485353; actives 0.19% (n = 330,000); active means well fitted rising curve with a large enough effect; inconclusive means small, poorly fitted or top-dose-only effect; inactive means no such curve, though single readings can be large or run the other way; note: 0% is about no effect; nearly all actives have a fitted effect of over 55% in size; growth read by luminescence after 48 h
# RE007 growth inh – less growth of the S. pombe RE007 Vpr strain; S. pombe RE007 Vpr strain, BacTiter-Glo ATP luminescence, 24 h; control for the full effect not named in the record; Potency, µM (series often up to 92.2 µM), inactives show at the top dose activity change, negative = less growth; actives 0.21% (n = 360,000); active = well fitted falling curve with a large enough effect; inconclusive = small, poorly fitted or top-dose-only effect; inactive = no such curve, though single readings can be large or run the other way;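 note: % is set by controls: 0 for no effect and ±100 for the full control effect; nearly all actives have a fitted effect of over 50% in size; the assay follows cell death caused by Vpr and the record does not say whether a fall means rescue or toxicity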
#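 Fission yeast strain RE007, carrying one chromosomally integrated HIV-1 vpr copy, was seeded at OD 0.01 in PMG+AL medium with 23 nL pinned compound. After 24 h at 30 °C and 99% humidity, viability was read by BacTiter-Glo luminescence.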
# Cruzain inh noDet – blocks cruzain activity in detergent-free assay. purified cruzain, Z-FR-AMC fluorescence, no detergent. Potency, µM, for inactives: max response, negative = inhibition, actives largely listed as inhibitors. actives 2.3% (n = 200,000). P25779;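 note: plate controls were enzyme without inhibitor for no effect and buffer without enzyme for full effect; nearly all actives have a fitted effect of over 40% in size; top concentration of the series not given in the record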
#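 Purified cruzain at 1.5 nM, pre-incubated 15 min with compound at room temperature in 100 mM sodium acetate pH 5.5, 5 mM DTT, 0.00005% Triton X-100. Reaction started with 2 uM Z-FR-AMC; AMC fluorescence increase over 60 s gives rate.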
# Marburg entry inh – inhibitors of Marburg virus binding or cell entry | actives 1.8% (n = 300,000) | Potency, µM (top dose mostly 37.8 µM), for the others: at the top dose activity change, negative = inhibition, most hits filed as inhibitors | AID 540276 | Marburg virus pseudotyped entry inhibition, cell reporter; control for the full effect not named in the record; about a third of the inactives were read at about 46 µM; active = well fitted inhibition curve with a large enough effect; inconclusive = small, poorly fitted or top-dose-only effect, or effect the other way; inactive = flat fitted curve, though single readings scatter; tested in HEK293 cells; about a fifth of its hits are not listed in these tables; note: % is set by controls: 0 for no effect and ±100 for the full control effect; luciferase read-out
# StopGo reporter – FMDV 2A StopGo reporter, luciferase signal | human cells with a luciferase reporter of 2A StopGo recoding; control for the full effect not named in the record | Potency, µM (top dose mostly 57.9 µM), without a hit: top-dose signal change, negative = less light | actives 1.2% (n = 410,000) | AID 1159524; active = well fitted falling curve with a large enough effect; inconclusive = small, poorly fitted or top-dose-only effect; inactive = no such curve, though single readings can be large or run the other way; tested in HEK293T cells; note: % is set by controls: 0 for no effect and ±100 for the full control effect; nearly all actives have a fitted effect of over 45% in size; luciferase light after 4 h
# Numbers without * were called inactive; ? = inconclusive; nt = no result given; & = joins results of further samples; [ ] = another dose, or the depositor's remark. Unless noted, calls come from the whole dose curve; as a rule, active = well fitted curve in the direction sought with a large enough effect; inconclusive = small, poorly fitted or top-dose-only effect, or another doubt; inactive = no such curve, though single readings can be large; an effect the other way counts as inactive or inconclusive. Potency is the fitted concentration of half-maximal effect. Random draw from the library (roughly 4.6% active in at least one column).
SMILES,LASV entry inh,Cruzain Triton,NS1 function inh,SARS PLpro yeast,RE007 growth inh,Cruzain inh noDet,Marburg entry inh,StopGo reporter
S=C(NCCc1ccccc1)N1CCN(C(c2ccccc2)c2ccccc2)CC1,?,-1.6%,16.7%,-5.9%,-0.3%,-1.2%,?,3.5%
O=C(NCc1ccc(N2CCCC2=O)cc1)NC1CCCCC1,-10.0%,0.3%,-14.0%,3.7%,9.7%,-0.9%,-13.2%,-13.7%
O=C(CSc1nc2ccccc2nc1Cc1ccccc1)N1CCN(c2ccccc2)CC1,19.8%[46.1 µM],3.7%,nt,nt,nt,6.3%,nt,-9.9%
Cc1cccc(C(=O)Nc2ccc(C(=O)N/N=C/c3cccc(C)n3)cc2)c1,-11.5%[46.1 µM],nt,-14.5%,-0.7%,-10.9%,nt,-0.7%[46.1 µM],-10.7%
Cc1cc(NC(=O)C2CCCCC2C(=O)O)ccc1NC(=O)c1ccccc1 (stereo not given),-1.4%,nt,-6.2%,-1.2%,-5.0%,nt,4.9%,-4.9%
CCOc1ccc(-c2nc(N)ncc2-c2ccc(Cl)cc2)c(O)c1,nt,nt,15.4%,-6.1%,-25.4%,nt,nt,-26.1%
CC(=O)Nc1ccc(NC(=O)CC2Sc3ccccc3NC2=O)cc1 (stereo not given),8.1%[46.1 µM],-2.1%,nt,nt,nt,-8.6%,9.2%[46.1 µM],12.1%
CCOc1ccc(-c2nnc(-c3cccs3)o2)cc1,?,-10.3%,-57.4%,-7.6%,2.5%,-0.8%,?,-51.4%
CCOc1ccc(OCC)c(NS(=O)(=O)c2cc(Br)cc3c2N(C(C)=O)C(C)C3)c1 (stereo not given),6.9%[46.1 µM],-5.3%,nt,nt,nt,?,7.0%[46.1 µM],49.9%[activator]
COc1cc(C)ccc1OCCOCCOc1ccc([N+](=O)[O-])cc1,9.2%,-8.7%,-7.9%,-14.7%,-12.1%,-2.6%,-1.8%,-24.2%
CCOC(=O)c1sc(SC)c2c1CCC/C2=N/OC,2.4%,nt,-6.9%,-5.6%,-5.2%,nt,14.4%,4.5%
COc1ccc(S(=O)(=O)NCCc2ccccc2)cc1OC,13.6%,nt,7.6%,0.2%,1.0%,nt,?,137.5%[activator]
CCc1ccc(NC(=O)C(=O)NNC(=O)c2ccc(OC)cc2)cc1,12.2%,nt,-1.3%,9.0%,-2.5%,nt,5.3%[46.1 µM],16.7%
Cc1nnc(NC(=O)Cn2cnc3c2c(=O)n(C)c(=O)n3C)s1,14.8%,-0.7%,5.4%,-8.4%,18.1%,-10.6%,3.4%,20.9%
O=C(COc1ccc2ccccc2c1)N1CCNCC1,?,nt,2.7%,0.8%,10.9%,nt,16.1%[46.1 µM],34.3%[activator]
Cc1ccc(OCC(=O)N2C(C)CCCC2C)c([N+](=O)[O-])n1 (stereo not given),-13.9%,nt,nt,4.0%,2.5%,nt,-2.9%,-3.6%
CCCc1cc2c(cc1NC(=O)c1ccc(C)cc1)OCO2,22.5%,3.9%,-6.9%,2.7%,21.2%,-2.9%,2.3%,13.3%
O=C(NC(=S)NCC1CCCO1)C(c1ccccc1)c1ccccc1 (stereo not given),3.6%,-4.8%,18.2%,-6.4%,1.7%,-12.1%,0.4%,-12.5%
Cc1ccc(-c2nnc(SCC(=O)NC3CCS(=O)(=O)C3)nc2-c2ccc(C)cc2)cc1 (stereo not given),-0.4%,-10.2%,17.9%,5.8%,-9.7%,?,-9.7%,-20.4%
CCCCOc1ccc(C(C)NC(=O)CN2C(=O)CSc3ccc(S(=O)(=O)N4CCOCC4)cc32)cc1 (stereo not given),-21.3%[46.1 µM],0.6%,nt,nt,nt,?,nt,-8.2%
OCC12COC(c3ccccc3)N1C(c1ccccc1)OC2 (stereo not given),3.8%,2.1%,-3.8%,-25.0%,1.3%,8.7%,1.0%,-1.9%
COc1ccc(NC(=O)c2ccc(NC(=O)c3ccco3)cc2)c(OC)c1,-1.8%[46.1 µM],nt,-27.6%,-7.6%,-4.4%,nt,-11.3%[46.1 µM],2.2%
COc1ccc(CS(=O)(=O)/C(Cl)=C(/Cl)C(=O)Nc2ccc(OC)nc2)cc1,6.31µM*,8.8%,-201.4%,-21.8%,?,3.9%,2.82µM*,11.2µM*
CCOC(=O)c1ccc(NC2OC(=O)c3ccccc32)cc1 (stereo not given),-4.2%,1.6%,-1.5%,0.0%,0.5%,-7.6%,-54.6%[46.1 µM],-5.9%
Cc1oc2cc3oc(=O)c(CCC(=O)N(C)CC(=O)O)c(C)c3cc2c1C,2.7%,nt,2.7%,-0.9%,14.3%,nt,4.0%,3.6%
# Carrying on.
SMILES,LASV entry inh,Cruzain Triton,NS1 function inh,SARS PLpro yeast,RE007 growth inh,Cruzain inh noDet,Marburg entry inh,StopGo reporter
O=P(O)(Oc1ccccc1)c1ccccc1,-0.1%[46.1 µM],nt,nt,nt,1.7%,nt,17.9%,-11.7%
COc1ccc(C2=NCCc3cc(OC)c(OC)cc32)cc1OC,-18.8%,-8.7%,-3.5%,9.0%,11.4%,-4.4%,4.9%,-4.8%
O=C(C1CCCO1)N1CCN(Cc2nc3ccccc3c(=O)[nH]2)CC1 (stereo not given),0.0%,1.5%,1.8%,2.3%,-11.6%,-9.7%,6.8%,nt
N#Cc1c(NC(=O)CN2CCN(C(=O)c3ccco3)CC2)sc2c1CCCCC2,-13.6%,-9.2%,-10.3%,-9.4%,-4.4%,?,-14.4%,nt
CCOC(=O)CSc1nc2c(sc(=S)n2Cc2ccco2)c(=O)n1-c1ccc(F)cc1,0.9%,-1.5%,?,5.6%,1.5%,-20.5%,-0.4%&-18.9%,-12.4%
O=C1C(Cl)=C(N2CCCCCC2)C(=O)N1c1ccc(Br)cc1,nt,nt,1.4%,-2.2%,-29.1%,nt,nt,30.9%[activator]
O=C1CCC([N+](=O)[O-])C(c2cc3c(cc2Cl)OCO3)N1 (stereo not given),nt,nt,3.8%,0.0%,-17.9%,nt,nt,-2.7%
CCN(CC)CC#CC(C)(C)OC(C)=O,-36.6%[14.3 µM],nt,nt,nt,7.1%,nt,8.5%,-10.2%
CCC(Sc1nc2n[nH]c(C)c2c(=N)n1-c1ccc(C)c(Cl)c1)C(=O)N1CCOCC1 (stereo not given),?,-2.0%,-35.6%,-0.1%,13.5%,?,?,0.0%
O=C(Nc1ccc(C(=O)N2CCOCC2)cc1)Nc1ccc(Cl)cc1Cl,nt,nt,2.1%,-0.6%,-10.1%,nt,nt,-6.6%
Cc1ccccc1N(CC(=O)N/N=C/c1ccccc1Cl)C(=O)c1ccccc1,18.2%,-4.6%,6.8%,2.3%,11.7%,-23.6%,0.4%,23.5%
COc1cccc(C(C(=O)NCc2ccccc2)N(C(=O)c2csnn2)C2CC2)c1 (stereo not given),11.9%,nt,-11.6%,0.7%,-16.5%,nt,-20.6%[46.1 µM],-8.6%
COc1ccc(CCNC(=O)C2CCCN(S(=O)(=O)c3cc(C)ccc3OC)C2)cc1OC (stereo not given),nt,nt,-3.6%,3.9%,0.3%,nt,nt,-23.6%
O=C(Nc1nc(-c2ccco2)c(-c2ccco2)s1)c1cnccn1,-5.7%,nt,nt,2.7%,-4.9%,nt,?,-15.3%
O=C(O)c1ccc(/C=C2\CCCc3c2nc2ccccc2c3C(=O)O)cc1,-3.5%[46.1 µM],nt,15.0%,-1.8%,1.1%,nt,?,1.4%
COc1ccccc1NS(=O)(=O)c1cccc(NC(=O)C(C)NC(=O)c2ccco2)c1 (stereo not given),-16.5%,nt,nt,2.2%,1.2%,nt,-2.9%,29.4%
COc1ccc(Cn2nnnc2CN(Cc2cc3cc(C)ccc3[nH]c2=O)C2CCCC2)cc1,?,-2.4%,-40.2%,12.5%,2.1%,-1.8%,?,nt
COc1cccc(OCc2cc(C(=O)N(Cc3nccn3C)C(C)C)no2)c1,nt,nt,-6.3%,-2.8%,4.9%,nt,nt,-19.4%
O=C(NNc1cccc(Cl)n1)c1c(Cl)cccc1Cl,26.7%,-1.7%,0.4%,3.8%,12.2%[3.69 µM],5.1%,5.8%,17.8%
O=C(CCC(=O)OCc1ccc(C(=O)Oc2ccc(Cl)cc2)cc1)Nc1ccccc1,?,-3.4%,-5.9%,11.6%,2.2%,?,6.5%,33.3%[activator]
COc1ccc2ccccc2c1-c1csc(N)n1,nt,nt,2.1%,0.1%,-1.8%,nt,nt,32.7%[activator]
O=C(Cc1sc(-c2ccccc2Cl)nc1-c1ccccc1)Nc1ccc(F)cc1,-29.0%,5.1%,?,9.2%,-1.4%,15.8µM*,?,-6.6%
CC(C)C1C(c2ccccc2)NC(c2ccccc2)CC1(O)c1ccc(F)cc1 (stereo not given),nt,nt,-4.0%,-0.3%,2.6%,nt,nt,-1.3%
COc1ccc(OC)c(-n2c(=O)c3ccccc3c3ccccc3c2=O)c1,-4.2%,-10.5%,-7.1%,-20.7%,nt,?,-4.7%,25.1µM*
Cc1ccc(S(=O)(=O)N2CCCCC2)cc1NC(=O)c1nn(C)c(=O)c2ccccc12,-1.6%,nt,nt,-0.2%,-20.2%,nt,-24.9%,-18.4%
COc1cc(/C=N/N2CCOCC2)ccc1OC(=O)c1ccco1,8.1%,nt,nt,-3.1%,-5.7%,nt,4.5%[46.1 µM],4.5%

# Part of the list above in order of molar mass, smallest number first:
SMILES,LASV entry inh,Cruzain Triton,NS1 function inh,SARS PLpro yeast,RE007 growth inh,Cruzain inh noDet,Marburg entry inh,StopGo reporter
O=P(O)(Oc1ccccc1)c1ccccc1,-0.1%[46.1 µM],nt,nt,nt,1.7%,nt,17.9%,-11.7%
O=C(C1CCCO1)N1CCN(Cc2nc3ccccc3c(=O)[nH]2)CC1 (stereo not given),0.0%,1.5%,1.8%,2.3%,-11.6%,-9.7%,6.8%,nt
N#Cc1c(NC(=O)CN2CCN(C(=O)c3ccco3)CC2)sc2c1CCCCC2,-13.6%,-9.2%,-10.3%,-9.4%,-4.4%,?,-14.4%,nt
